# AmpC inh no det – inhibitors of E. coli AmpC beta-lactamase without detergent. Potency, µM (doses to about 28.7 µM), for inactives: top-dose activity change, negative = inhibition. 71,000 tested, 1.8% active. P00811. AmpC nitrocefin hydrolysis, absorbance 480 nm, no detergent; potencies from a single point are estimates. AID 585; active = falling curve, for most hits resting on a single point; inconclusive = weak or doubtful change; inactive = flat or rising curve; also: % of control where 0% means no effect; about half of the hits show no inhibition at the top dose; a quarter of the inactives give rising signals
# Target sequence (P00811 whole entry, looked up): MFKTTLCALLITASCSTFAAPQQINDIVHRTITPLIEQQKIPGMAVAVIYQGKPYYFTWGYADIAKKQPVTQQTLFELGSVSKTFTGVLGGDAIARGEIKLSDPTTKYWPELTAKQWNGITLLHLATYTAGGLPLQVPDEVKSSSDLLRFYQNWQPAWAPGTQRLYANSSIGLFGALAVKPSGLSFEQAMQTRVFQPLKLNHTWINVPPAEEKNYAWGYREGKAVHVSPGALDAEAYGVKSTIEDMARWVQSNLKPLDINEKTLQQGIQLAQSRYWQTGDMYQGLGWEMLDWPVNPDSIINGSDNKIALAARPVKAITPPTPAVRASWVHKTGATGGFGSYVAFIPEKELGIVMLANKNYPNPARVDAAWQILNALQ
#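 AmpC in 20 mM phosphate buffer pH 7.0 was preincubated 15 min at room temperature with compounds. Nitrocefin (800 uM stock) was then added and hydrolysis followed at 480 nm every 20 s for 4 min.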
# Active calls of the source: *; & = joins results of further samples; [ ] = another dose, or the depositor's remark. Potency is read from the fitted curve at half-maximal effect. A portion of the library. The share of hits here may be higher or lower than overall.
SMILES,AmpC inh no det
O=C(Cn1cnc2c(nnn2Cc2ccccc2)c1=O)NCc1ccco1,10%
CCc1nnc(NC(=O)CCC(=O)O)s1,-3%
CCc1nnc(NC(=O)CSc2nnc(Cc3ccccc3)o2)s1,-3%
S=C(Nc1ccccc1)Nc1nccs1,-6%
O=C(O)C1C2CCC(C2)C1C(=O)NCc1ccco1 (stereo unspecified),-8%
O=C(CCC(=O)N(Cc1ccco1)C(C(=O)NC1CCCC1)c1ccncc1)Nc1cccnc1 (stereo unspecified),10%
CC(=O)c1c(COC(=O)c2cccnc2)nc2ccccc2[n+]1[O-],-15%
C=CCSC1=C(C#N)C2(CCCCC2)C(C#N)C(=O)N1 (stereo unspecified),1%
CC(=O)c1cc(F)c(N2CCCC2)cc1C,-4%
CS(=O)(=O)N(CC(=O)N1CCCCCC1)c1cccc(Br)c1,15%
CCC(=O)[C@@]1(C)[C@H](C)C[C@@H]2[C@@H]3CCC4=CC(=O)C=C[C@@]4(C)[C@H]3[C@H](O)C[C@]21C,-4%[12.8 µM]
CCOc1ccc(-n2c(SCC(=O)Nc3nccs3)nc3c(c2=O)SCC3)cc1,-1%
CCOCCCNC(=O)C(C)NS(=O)(=O)c1ccc(C)cc1 (stereo unspecified),15%
Cc1cc(Cl)ccc1OCC(=O)OC(C)C(=O)NC(N)=O (stereo unspecified),6%
Cc1cc(SCC(=O)Nc2c(C)n(C)n(-c3ccccc3)c2=O)n2c(nc3ccccc32)c1C#N,-15%
COCCn1c(=O)[nH]c2cc(C(=O)NCCCN3CCN(c4ccc(F)cc4)CC3)ccc2c1=O,44%
COc1ccc(-n2c(C)cc(C(=O)Cn3c(NCCO)nc4ccccc43)c2C)cc1,157%
Cc1cccc(OCC2=N/C(=C\N(C)C)C(=O)O2)c1,11%
COCCNC(=O)c1c(N)sc2c1CCCC2,114%
COc1ccc(S(=O)(=O)Cc2ccccc2)cc1N,-7%
CCC[C@@H]1O[C@@H]2C[C@@H]3[C@H]4CCC5=CC(=O)C=C[C@@]5(C)[C@H]4[C@H](O)C[C@@]3(C)[C@@]2(C(=O)CO)O1,42%[12.8 µM]
CCOC(=O)c1cnc2c(-c3ccccc3)c(C)nn2c1N,6%
O=C(CSc1ncnc2c1cnn2-c1ccccc1Cl)N1CCN(C(=O)c2ccco2)CC1,88%
CCN1CCN(Cc2cc(=O)oc3cc(C)cc(C)c23)CC1,6%
N#Cc1cnn(Cc2ccccc2)c1N,-2%
O=C(Cn1ncc2c(=O)oc3ccccc3c21)N1CCN(c2ccccn2)CC1,-1%
CN(C)C(=O)N1CCC(C(=O)NCc2ccc(F)cc2Cl)CC1,3%
NCCCSC1=NCCCN1,-12%
NCCCCCc1nnc(SCc2ccccc2Cl)o1,17%
Nc1cc(Cl)cc(Cl)c1,5%
CSc1nc(N)c2ncn([C@H]3O[C@H](COP(=O)(O)OP(=O)(O)O)[C@@H](O)[C@@H]3O)c2n1,11%
COc1ccc(CCC(=O)N2CC(C)OC(C)C2)cc1 (stereo unspecified),9%
Cc1ccc(S(=O)(=O)OC2CCN(C)CC2)cc1,-4%[5.75 µM]
C/C(=N/Nc1ccc2ccccc2n1)c1ccccc1O,-10%[5.75 µM]
Cc1ccc(OC(C)c2nnc(N)s2)cc1Cl (stereo unspecified),-4%
Clc1ccc(Cc2noc(CN3CCN(c4ccccc4)CC3)n2)c(Cl)c1,33%
COc1ccccc1NC(=O)CNS(=O)(=O)c1ccccc1,8%
Cc1cc(C)nc(N(C#N)CC(=O)N2CCC(C(N)=O)CC2)n1,3%
Cc1ccc(C(C)n2cc(C(=O)NCc3cccnc3)nn2)cc1 (stereo unspecified),7%
c1ccc2cc3[nH]c(CN4CCOCC4)nc3cc2c1,-1%
CCC(=O)N1CCc2cc(S(=O)(=O)Nc3ccc4c(c3)OCCO4)ccc21,-13%
O=C1c2ccccc2C(=O)C12Cc1ccccc1N1CCN(c3ccccc3)CC12 (stereo unspecified),4%
Cc1cnn(C2CCN(C)CC2)c1N,-11%
CC(=O)Nc1ccc(NS(=O)(=O)c2ccc(Cl)c(C(=O)O)c2)cc1,-10%
Cc1ccccc1Cc1c(C)nc2c(C(=O)NCc3ccco3)cnn2c1C,68%
Clc1ccc(Cl)c(-c2nn3c(COc4ccccc4)nnc3s2)c1,-11%
COc1ccc(OC)c(-n2cnc3cc(C(=O)O)ccc32)c1,-8%
COC(=O)C1=CN(CC2CCCO2)C=C(C(=O)OC)C1c1ccsc1 (stereo unspecified),61%
O=C(NC1CCCCCC1)C1CCN(S(=O)(=O)c2ccccc2)CC1,-2%
O=C(O)c1cccc(-n2nnnc2SCc2ccccn2)c1,0%
COc1ccc(C[C@@H](N)c2ccc(OC)cc2)cc1,7%[5.75 µM]
Cc1cc(C)cc(NC(=O)c2cc(S(=O)(=O)NCc3ccco3)ccc2F)c1,22%
Cc1ccc2[nH]c(=O)c(CN(CCc3ccccc3)C(=O)N3CCOCC3)cc2c1,110%
COc1cccc2sc(N(C)c3ccccc3)nc12,102%
O=C1Nc2ccccc2C1(O)Cc1ccncc1 (stereo unspecified),-2%
COc1cc(C2CC(=O)c3c([nH]c(C(=O)OCCOC(C)C)c3C)C2)cc(OC)c1OC (stereo unspecified),109%
O=C1C2CCCN2C(c2ccc(F)cc2)N1c1nccs1 (stereo unspecified),-9%
CN1CCN(C(=O)Nc2cccc3ccccc23)CC1,-4%
Cn1c(=O)c2c(nc(NCCCN3CCOCC3)n2Cc2ccc(Cl)cc2)n(C)c1=O,51%
O=C(Nc1nc(-c2ccccn2)cs1)c1ccc(Cl)s1,-1%

# Remaining list, next part:
SMILES,AmpC inh no det
COCCn1c(SCc2csc(-c3ccccc3)n2)nc2ccccc21,51%
O=C(CSc1nnc2c3c4c(sc3ncn12)CCCC4)NCc1ccco1,-11%
O=c1oc2c(CN3CCCCC3)c(O)ccc2cc1-c1nc2ccccc2[nH]1,37%
Cc1cccc(CNc2cc(-c3cccc(C#N)c3)ncn2)c1,30%
CCOc1ccc(NCc2nnc(SCC(=O)Nc3cc(C)on3)n2-c2ccc(OC)cc2)cc1,30%
Cc1ccc2nc(-c3ccccc3)cn2c1,-7%
O=C(Nc1cccnc1)Nc1ccccc1Cl,-18%
CCCNC(=O)CS(=O)(=O)Cc1nc(-c2cccc(OC)c2)oc1C,38%
CCn1c(SCC(=O)Nc2ccc3c(c2)OCCO3)nnc1-c1ccco1,5%
Cc1ccc(SCCCn2cncn2)cc1,12%
O=C(CSc1nnc(-c2ccc(O)cc2)n1Cc1ccco1)c1cccs1,-7%
CCn1cc(C(=O)NC2CCCCCC2)c(=O)c2cc(S(=O)(=O)N3CCCCC3)ccc21,4µM*[single pt active]
COc1ccc(N2CCN(C(c3cc4ccc(C)cc4[nH]c3=O)c3nnnn3C3CCCC3)CC2)cc1 (stereo unspecified),54%
ClCCCCl,-9%
CC1CCCC(C)N1C(=O)COc1ccc(-c2nnco2)cc1 (stereo unspecified),3%
CCOc1ccc(C(=O)c2cccs2)cc1,-11%
COC(=O)[C@H]1C[C@@H]1[C@H](NP(=O)(c1ccccc1)c1ccccc1)c1ccccc1,128%&102%
Cc1c(C(=O)OCCN2CCCCC2)oc2ccccc12,6%
Cc1noc(C)c1C(=O)Nc1sc2c(c1C(N)=O)CCC2,51%
CC(=O)NC(NC(C)=O)c1ccc(N(C)C)cc1,0%
CCOc1ccccc1NC(=O)C1CCN(S(=O)(=O)c2cccc3cccnc23)CC1,42%
COc1cc(C2Nc3cccc4cccc(c34)N2)cc(OC)c1O,86%
COC(=O)CNC(=O)C(Cc1c[nH]c2ccccc12)NC(=O)OC(C)(C)C (stereo unspecified),31%
Cc1nn(-c2ccccc2)c(Cl)c1C1C(C#N)=C(N)Oc2n[nH]c(C)c21 (stereo unspecified),35%
O=C(c1ccc2c(c1)OCCO2)N1CCCCC1,0%&-3%
Nc1nonc1-c1noc(-c2ccc(Br)o2)n1,0%
COc1ccccc1CNc1ncncc1-c1ccccc1Cl,17%
Cc1cc(C(F)(F)F)nc(SCC(=O)NC2=NC(=O)C(C)S2)n1 (stereo unspecified),-12%
COc1ccc(CN2CCN(c3ccccn3)CC2)cc1OCc1ccccc1,83%
CC(C)(C)n1nnnc1C(c1cccs1)N1CCN(Cc2ccccc2)CC1 (stereo unspecified),38%
COC(=O)[C@@]1(Cc2ccccc2)[C@H]2c3cc(C(=O)N(C)C)n(CCF)c3C[C@H]2CN1C(=O)c1ccccc1,164%
O=C(Nc1ccc2c(c1)OCCO2)C1CCC1,-9%
O=C(CSc1nnc(-c2ccco2)o1)NC1CC2CCC1C2 (stereo unspecified),-1%
CC(C)COC(=O)OCN1C(=O)CN(CCN2CC(=O)N(COC(=O)OCC(C)C)C(=O)C2)CC1=O,121%
CCc1cccc2c(C#N)cn(CCOc3ccccc3OC)c12,2%
COC(=O)c1ccc(C(=O)OC)c(NC(=O)c2ocnc2C)c1,0%
COc1ccccc1NC1=NC2(CCCC2)N=C(N)N1,-16%
Clc1ccc(N2CCN(c3ncnc4c3oc3ccccc34)CC2)cc1,4%
N#Cc1nc(-c2ccco2)oc1N1CCN(c2cccc(Cl)c2)CC1,-5%
CC/C(=C\C(=O)c1cccnc1)Nc1ccc(C)c(C)c1,37%
Cc1cnc(C(=O)Nc2ccccc2-c2ccc(C)o2)cn1,43%
CCCc1cc(C(=O)NCc2cccs2)no1,-11%
COc1ccccc1-c1cc(C(=O)NCCCn2ccnc2)no1,1%
C=CCn1c(SCc2nc(N)nc(N(C)C)n2)nnc1-c1cccnc1,2%
CCCOc1ccc2ccccc2c1/C=N/n1c(C)nnc1-n1nc(C)cc1C,122%
COc1cccc(N(C(=O)c2cccs2)c2nc3ccccc3s2)c1,7%
Nc1nc(N2CCCCC2)nc(N(c2ccccc2)c2ccccc2)n1,16%
Cc1cc(=O)[nH]c(N2CCN(C(c3ccccc3)c3ccccc3)CC2)n1,16%
CCOC(=O)c1cc2c(ccn2C)n1CC(=O)N1CCC(Cc2ccccc2)CC1,126%
Cc1cc(C)n(-c2ccc(C(=O)Nc3nnc(C4CC4)s3)cc2)n1,35%
Cc1nc2cnc(N3CCN(C)CC3)nc2n(CCc2ccccc2)c1=O,66%
CN[C@]1(C)[C@@H]2CC[C@@H](C2)C1(C)C,3%
CCCN(CCC)CCCNS(=O)(=O)c1ccc2c(c1)oc(=O)n2C,-9%
O=S(=O)(NCc1cccnc1)c1cccs1,0%
CCOC(=O)N1CCC(Nc2c(NCCCOC)c(=O)c2=O)CC1,-6%
COc1ccc(C(=O)N2CCC[C@@]3(CCN(Cc4ccc(C#N)cc4)C3)C2)cc1,40%
Cc1c(C#N)c(N=CN(C)C)c(C(=O)c2ccccc2)n1-c1ccccc1,16%
O=C(NCc1ccc(N2CCCC2=O)cc1)NC1CCCCC1,13%
OCC12COC(c3ccccc3)N1C(c1ccccc1)OC2 (stereo unspecified),33%
CCOC(=O)c1ccc(NC2OC(=O)c3ccccc32)cc1 (stereo unspecified),-8%

# (next part)
SMILES,AmpC inh no det
N#Cc1c(NC(=O)CN2CCN(C(=O)c3ccco3)CC2)sc2c1CCCCC2,95%
O=C(C1CCCO1)N1CCN(Cc2nc3ccccc3c(=O)[nH]2)CC1 (stereo unspecified),1%
CCOC(=O)CSc1nc2c(sc(=S)n2Cc2ccco2)c(=O)n1-c1ccc(F)cc1,2%
CCC(Sc1nc2n[nH]c(C)c2c(=N)n1-c1ccc(C)c(Cl)c1)C(=O)N1CCOCC1 (stereo unspecified),132%
COc1ccc(Cn2nnnc2CN(Cc2cc3cc(C)ccc3[nH]c2=O)C2CCCC2)cc1,16%
C=CCn1c(=N)n(CC(O)COc2ccc(OC)cc2)c2ccccc21 (stereo unspecified),0%
Cc1noc(C)c1-c1nccc(N(C)C)n1,15%
CC(C)Cn1c(N)c(C(=O)COC(=O)c2cc(-c3ccco3)nc3ccccc23)c(=O)n(C)c1=O,-22%
CCC(C)Sc1nnc(Cc2cc(=O)[nH]c(=O)[nH]2)n1-c1ccc(F)cc1 (stereo unspecified),20%
CCC(=C(CC)c1ccc(O)cc1)c1ccc(O)cc1,-19%[12.8 µM]
CCOCCCn1c(SCC(=O)NC(C)(C)C)nc2ccccc2c1=O,40%
Cc1ccc2cc(CN(CC3CCCO3)S(=O)(=O)c3ccc4c(c3)OCCO4)c(=O)[nH]c2c1C (stereo unspecified),116%
CC(=O)N1CCC2(CC1)CCN(c1ccc(-c3ccccc3)cc1)CC2,152%
C/C(=N/Nc1nc(C)cc(=O)[nH]1)C(=O)O,2%[5.75 µM]
CN1CCN(C(=O)C2CC(=O)N(c3ccc(F)c(Cl)c3)C2)CC1 (stereo unspecified),2%
COc1ccccc1C(=O)Nc1ccc2c(c1)nc1n2CCSC1,9%
O=C1c2ccccc2S(=O)(=O)N1Cc1cccc(S(=O)(=O)N2CCOCC2)c1,21%
CS(=O)(=O)N(CCc1ccccc1)CC(=O)NCC1CCCO1 (stereo unspecified),-2%
O=C(CSc1ccc2nnc(-c3ccncc3)n2n1)NCc1ccco1,6%

# Among those listed so far, these have two or more sulfur atoms:
SMILES,AmpC inh no det
CCc1nnc(NC(=O)CSc2nnc(Cc3ccccc3)o2)s1,-3%
S=C(Nc1ccccc1)Nc1nccs1,-6%
CCOc1ccc(-n2c(SCC(=O)Nc3nccs3)nc3c(c2=O)SCC3)cc1,-1%
O=C(Nc1nc(-c2ccccn2)cs1)c1ccc(Cl)s1,-1%
COCCn1c(SCc2csc(-c3ccccc3)n2)nc2ccccc21,51%
O=C(CSc1nnc2c3c4c(sc3ncn12)CCCC4)NCc1ccco1,-11%
O=C(CSc1nnc(-c2ccc(O)cc2)n1Cc1ccco1)c1cccs1,-7%
Cc1cc(C(F)(F)F)nc(SCC(=O)NC2=NC(=O)C(C)S2)n1 (stereo unspecified),-12%
COc1cccc(N(C(=O)c2cccs2)c2nc3ccccc3s2)c1,7%
O=S(=O)(NCc1cccnc1)c1cccs1,0%
CCOC(=O)CSc1nc2c(sc(=S)n2Cc2ccco2)c(=O)n1-c1ccc(F)cc1,2%
O=C1c2ccccc2S(=O)(=O)N1Cc1cccc(S(=O)(=O)N2CCOCC2)c1,21%
